Screening results deposited in PubChem BioAssay by ICCB-Longwood Screening Facility, Harvard Medical School.
GIV-Gai inh: inhibitors of GIV GBA-motif binding to rat Galpha-i3. P08753. Galpha-i3/FITC-GIV peptide fluorescence polarization, 90 min; stronger effect = lower value; scaled: aluminum fluoride 0%, vehicle 100%. percent of control (FP), % (concentration not given with the values). actives 0.42% (n = 210,000). AID 1224905;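 active = replicate mean at 85% of control or lower, very high polarization wells dropped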;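 note: wells of about 15 µL received 100 nL stock; the first replicate is given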
Target sequence (P08753 whole entry, looked up): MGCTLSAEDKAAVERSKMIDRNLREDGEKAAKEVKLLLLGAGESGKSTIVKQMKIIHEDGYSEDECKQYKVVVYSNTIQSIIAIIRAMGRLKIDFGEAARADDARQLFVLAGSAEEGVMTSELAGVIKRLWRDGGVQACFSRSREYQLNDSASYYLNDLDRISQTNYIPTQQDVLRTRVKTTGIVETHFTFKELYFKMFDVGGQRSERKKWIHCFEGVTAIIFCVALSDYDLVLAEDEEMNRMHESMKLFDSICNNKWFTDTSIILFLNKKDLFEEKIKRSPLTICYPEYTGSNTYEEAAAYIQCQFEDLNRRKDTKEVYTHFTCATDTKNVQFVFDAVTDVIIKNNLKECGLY
Sa growth 42C: S. aureus growth inhibition | S. aureus RN4220 growth, OD600, 20 h, 42 °C; stronger effect = lower value | relative growth, % (test concentration not listed) | actives 0.53% (n = 170,000);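 active = growth at 42 °C up to 50% and 20 or more points under that at 30 °C, or under 10% at both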;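 note: 300 nL library stock went into each well; scaled to the means of positive and negative controls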
HCMV NEC inh: inhibitors of HCMV UL50-UL53 nuclear egress complex interaction; HTRF UL50-UL53 interaction, normalized percent inhibition; inhibition, % (concentration not given with the values); actives 0.15% (n = 190,000); AID 1918969;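 active = both replicates at 50% or more, plus weaker picks with an unusually low signal ratio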;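 note: stock transfer was 100 nL into about 20 µL; 0% = negative control wells and 100% = wells with untagged competitor protein; inactives centre near -12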
Sa growth 42C second temp: also measured in Sa growth 42C; calls as there; relative growth, %; measured here: growth at 30 °C;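 optical density after 20 h as mean of two plates; 100% = untreated growth and lower means inhibition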
The depositor's hits bear a star; · = not tested or not shown; & = joins results of further samples.

SMILES | GIV-Gai inh | Sa growth 42C | Sa growth 42C second temp | HCMV NEC inh
C(=Nc1ccccc1)c1nc(-c2ccccc2)n2ccccc12 | · | 99.6 | 91.6 | -101.8
COc1ccc(/C=C/C(=O)C2C(=O)COC2=O)cc1OC (stereo unspecified) | 101.3 | 117.8 | 95.8 | -60.8
COC(=O)c1cc(S(=O)(=O)N2CCCC2C(=O)Nc2ccc(OC)cc2)cn1C (stereo unspecified) | 103.1 | · | · | 14.6
CCn1c2ccccc2c2nnc(NCCc3ccccc3)nc21 | 108.3 | 114.1 | 89.2 | -4.7
CSc1n[nH]c(NS(=O)(=O)c2ccc(Cl)cc2)c1-c1ccccn1 | 100.3 | 127.0 | 98.7 | -36.4
O=C(Cn1c(=O)n(CC2CCC(C(=O)NCCc3ccccc3)CC2)c(=O)c2ccccc21)Nc1cccc(F)c1 (stereo unspecified) | 102.7 | 90.5 | 100.9 | -39.5
O=c1c2sc3ccccc3c2n(Cc2ccccc2)c(=O)n1CCc1ccccc1 | 106.1 | 107.3 | 86.7 | -18.6
O=C(CSc1ncnc2ccccc12)NC1CCCCC1 | 103.3 | 103.7 | 92.6 | ·
CCN1C(=O)/C(=C/N(C(C)=O)c2ccccc2)OC1=S | 105.0 | 87.8 | 82.7 | -57.7
COc1cc(C)c(C(C)C)cc1S(=O)(=O)N1CCN(c2cccc(Cl)c2)CC1 | 102.7 | 83.4 | 91.0 | ·
CC(C)N(Cc1ccccc1)S(=O)(=O)c1ccc(-n2cccn2)cc1 | 102.6 | 82.9 | 84.0 | ·
CC(NC(=O)CC(c1ccccc1)c1ccccc1)c1ccccc1 (stereo unspecified) | · | 98.3 | 85.3 | -16.6
CN(C)CCNC(=O)c1ccc(CS(=O)(=O)c2c(Cl)cccc2Cl)o1 | 96.5 | 98.8 | 82.3 | 5.3
Cc1ccc(C)c(S(=O)(=O)NCC(=O)Nc2nsc(-c3ccccc3)n2)c1 | 99.3 | 108.8 | 93.9 | ·
N/C(=N\O)C12CC3CC(CC(C3)C1)C2 | · | 84.1 | 97.1 | -25.5
COC(=O)c1sc(N)c(C#N)c1C | 100.9 | 85.4 | 42.7 | -5.1
Cc1cc(C)nc(/N=C(/NC(=O)Cc2ccccc2)N2CCC(C(N)=O)CC2)n1 | 104.4 | 129.9 | 98.0 | ·
N#CCCn1c(SCC(=O)N2CCCC2c2ccc3c(c2)OCCCO3)nc2ccccc21 (stereo unspecified) | · | 101.1 | 90.8 | -4.6
CCc1ccccc1NC(=O)Nc1c(-c2cccnc2)[nH]c2ccccc12 | 105.0 | · | · | -7.2
Cc1ccc(C)c(NC(=O)CCc2c(C)nn(-c3ccc(N4CCCC4)nn3)c2C)c1 | 102.7 | 69.4 | 91.9 | ·

Among those listed so far, 2 contain an NH in an aromatic ring:
SMILES | GIV-Gai inh | Sa growth 42C | Sa growth 42C second temp | HCMV NEC inh
CSc1n[nH]c(NS(=O)(=O)c2ccc(Cl)cc2)c1-c1ccccn1 | 100.3 | 127.0 | 98.7 | -36.4
CCc1ccccc1NC(=O)Nc1c(-c2cccnc2)[nH]c2ccccc12 | 105.0 | · | · | -7.2

More records follow:
SMILES | GIV-Gai inh | Sa growth 42C | Sa growth 42C second temp | HCMV NEC inh
Cc1ccc(S(=O)(=O)NCc2cccs2)cc1 | 108.1 | 99.7 | 93.2 | -20.5
O=S(=O)(c1ccccc1)N1CCC(CN2CCCCC2)CC1 | 112.4 | · | · | -3.9
CCC(C)NC(=O)c1ccc2c(=O)n(C3CCCC3)c(=O)[nH]c2c1 (stereo unspecified) | 107.4 | 98.5 | 83.5 | 2.3
CCOC(=O)c1ccccc1NC(=O)CSc1nc(N)cc(=O)[nH]1 | · | 106.5 | 91.0 | -7.9
Cc1c(C(C)NC(=O)COc2ccc(Br)cc2Cl)cnn1C (stereo unspecified) | 118.9 | 103.3 | 103.2 | 9.6
O=C(OCC1CCCO1)c1c(-c2ccccc2)c(-c2ccccc2)n[nH]c1=O (stereo unspecified) | 99.1 | · | · | -33.8
O=C1C2=C(Nc3ccccc3SC2c2ccccc2F)c2ccccc21 (stereo unspecified) | 104.4&100.3 | 100.2 | 83.7 | -40.4
O=C(COc1cccc[n+]1[O-])N1CCc2ccccc21 | · | 96.0 | 92.4 | -9.5
COC(=O)C(C)NC(=O)c1cccnc1Cl (stereo unspecified) | · | 107.0 | 83.2 | -30.7
CC(C)c1ccc(Cn2c(=O)c3sccc3n3c(=S)[nH]nc23)cc1 | 105.8 | · | · | 4.4
COC(=O)c1c(C)[nH]c(C(=O)CN(C)Cc2cccc(OC)c2)c1C | · | 97.8 | 92.8 | -19.3
O=S(=O)(Nc1ccccc1O)c1ccccc1 | · | 67.8 | 92.4 | -9.2
Cc1cc(C)n2c(C#N)c(C#N)nc2n1 | · | 84.5 | 90.6 | -17.1
Cc1cc(C)cc(-n2ccnc(NCc3ccc(F)cc3)c2=O)c1 | 98.9 | 94.0 | 86.3 | ·
CC(C)Cn1nc(NC(=O)c2cccc(Cl)c2)c2cc3ccccc3nc21 | 110.0 | 105.7 | 85.2 | -0.6
Cc1ccc(C(C)C)c(OCC(=O)Nc2onc3c2CC(C)CC3)c1 (stereo unspecified) | 98.2 | · | · | -21.2
Cc1cccc(NC(=O)c2ncoc2-c2ccccc2Cl)c1C#N | 108.5 | 102.4 | 80.1 | -4.2
O=C(NCc1ccco1)c1ccc2c(c1)N(Cc1ccccc1F)C(=O)c1ccccc1S2(=O)=O | 100.8 | 97.0 | 95.8 | -4.0
COC(=O)C1=C(C)NC(C)=C(C(=O)OC)C1C(=O)OC(C)C(=O)Nc1ccc(C)cc1 (stereo unspecified) | · | 81.7 | 88.8 | -13.8
O=C(CCSc1ccc2ccccc2n1)NCc1ccc2c(c1)OCO2 | 99.5 | 92.8 | 92.1 | 33.9
Cn1c(=O)n2n(c1=O)C1C=CC2C1 | 106.3 | 90.9 | 84.9 | -24.7
Cc1onc(-c2ccccc2Cl)c1C(=O)Nc1cccc(C(=O)O)c1 | 102.3 | · | · | -12.0
COc1ccc2c(c1)cc(CNc1ccc(OC)c(OC)c1)c(=O)n2CC(=O)Nc1ccccc1C | 101.7 | 106.8 | 83.7 | ·
COc1ccc(C(=O)n2nc(-c3cccnc3)nc2N)cc1 | 102.0 | 109.8 | 95.1 | -30.2
O=C(CSc1ccccn1)Nc1ccc(O)c(C(=O)O)c1 | 101.7 | 90.7 | 78.7 | -11.5
O=C1NC(c2cccc(Oc3ccccc3)c2)Oc2ccccc21 (stereo unspecified) | · | 74.8 | 76.9 | -1.6
O=C(CC12CC3CC(CC(C3)C1)C2)Nc1ccccc1N1CCOCC1 | · | 116.7 | 97.7 | -1.7
O=c1c2ccccc2nnn1CSc1nncs1 | · | 92.6 | 91.5 | -68.6
CC1(C)CC(=O)C=C(NN2CCOCC2)C1 | · | 90.9 | 88.6 | 4.2
COc1ccc(C(=O)c2c(NC(C)=O)sc3c2CCN(C(=O)OC(C)(C)C)C3)cc1 | 97.0 | 98.8 | 86.9 | -26.8
CCc1nc2ccccc2c(C(=O)OCC(=O)N(C)C)c1C | · | 92.1 | 99.7 | -13.3
COc1ccccc1Nc1ccc(S(=O)(=O)N2CCCC2)cn1 | · | 78.1 | 85.5 | -23.0
N#Cc1ccc(OC(=O)c2ccc(Cl)cc2Cl)cc1 | 101.8 | 88.8 | 91.0 | -6.1
Cc1nc(SCC(=O)N(C)C2(C#N)CCCCC2)c2ccccc2n1 | · | 94.2 | 87.4 | -23.5
Cc1ccc(-c2cc(NC(=O)c3oc4c(C)c(C)ccc4c3C)on2)cc1 | 98.0 | · | · | -25.0
O=C(C(NS(=O)(=O)c1ccc(Br)s1)c1ccccc1)N1CCOCC1 (stereo unspecified) | 102.7 | 81.3 | 89.6 | ·
O=C(CCCn1c(=O)c2ccc(Cl)cc2n(CC(=O)c2cccc(Br)c2)c1=O)NCc1ccco1 | 107.1 | 109.2 | 94.2 | -7.8
O=C(Cc1cccc2ccccc12)NN1C(=O)C2C3C=CC(C3)C2C1=O (stereo unspecified) | · | 109.0 | 90.9 | 0.7
COc1ccc2[nH]c3c(=O)n(CCCCC(=O)Nc4ccccc4)c(=S)[nH]c3c2c1 | 103.2 | 102.7 | 71.5 | ·
O=C(CCSCc1ccccc1)NCc1ccco1 | 98.4 | 104.0 | 79.8 | -1.5
O=C(Cn1c(=O)n(-c2ccccc2)c(=O)c2c3c(sc21)CCC3)NCc1ccco1 | 110.5 | 94.8 | 104.0 | 2.5
Cc1ccc(NC(=O)CCNS(=O)(=O)c2c(C)[nH]c(C)c2C(=O)N2CCCC2)nc1 | 108.1 | · | · | -40.3
Cc1cccc(NC(=S)Nc2c(C(C)C)cccc2C(C)C)c1 | 100.9 | 102.2 | 83.3 | 40.7
O=C1c2nc3cc(-c4ccccc4)[nH]n3c(=O)c2CN1Cc1ccco1 | 106.2 | 97.2 | 98.5 | -13.6
O=c1[nH]nc(-c2ccco2)o1 | · | 97.0 | 92.6 | -12.2
COc1ccc(OC)c(Sc2ncccc2C(=O)O)c1 | 102.9 | 102.9 | 85.3 | -6.7
CCC(=O)N1CCc2cc(S(=O)(=O)NCCC(=O)NC(C)c3ccccc3)ccc21 (stereo unspecified) | 106.4 | 101.0 | 87.6 | -17.9
COc1ccc(CNC(=O)CCCn2c(=O)c3cccn3c3ccc(F)cc32)cc1OC | 103.5 | 101.2 | 64.2 | -25.1
Cc1ccc2oc(=O)c3cc(C(=O)NCCCOC(C)C)sc3c2c1 | 103.8 | 104.3 | 91.4 | -37.5
O=C(CSc1nc2c(c(=O)n1Cc1ccccc1)SCC2)N1CCC(Cc2ccccc2)CC1 | 104.4 | · | · | -11.0
O=c1c2cc3c(cc2nc2sc(Nc4ccc(F)c(Cl)c4)nn12)OCO3 | 104.0 | 100.3 | 103.4 | 6.3
CCCN(C(=O)CCn1cnc2onc(-c3ccc(F)cc3)c2c1=O)c1ccccc1C | 105.8 | 90.4 | 95.9 | ·
NS(=O)(=O)c1ccc(N=Cc2ccccc2)cc1 | 106.7 | 83.7 | 79.2 | -23.2
CCN(CC)C(=O)Cn1cc(C#N)c2ccccc21 | · | 84.8 | 103.8 | 17.2
CC(NC(=O)c1ccc(CS(=O)(=O)Cc2ccccc2F)o1)c1ccccc1 (stereo unspecified) | 101.2 | 89.9 | 77.4 | 3.1
COC(=O)c1cccc(C(=O)OC)n1 | 102.0 | 104.7 | 84.2 | ·
CCCN1C(=O)c2[nH]nc(-c3ccccc3)c2C1c1ccccn1 (stereo unspecified) | 104.0 | 104.4 | 82.5 | -19.3
Cc1ccc(Cl)cc1N1CCN(C(=O)c2cc3c(-c4ccccc4F)nn(C)c3s2)CC1 | 106.4 | 98.9 | 87.2 | -10.9
Cc1cc(Nc2ccccc2C)nc(C)n1 | 97.5 | · | · | -11.2
COc1cc(-c2noc(-c3ccc(NCC4CCCO4)c([N+](=O)[O-])c3)n2)cc(OC)c1OC (stereo unspecified) | 101.9 | 107.1 | 83.3 | -16.4

Structures listed so far containing a furan ring, fused or not:
SMILES | GIV-Gai inh | Sa growth 42C | Sa growth 42C second temp | HCMV NEC inh
CN(C)CCNC(=O)c1ccc(CS(=O)(=O)c2c(Cl)cccc2Cl)o1 | 96.5 | 98.8 | 82.3 | 5.3
O=C(NCc1ccco1)c1ccc2c(c1)N(Cc1ccccc1F)C(=O)c1ccccc1S2(=O)=O | 100.8 | 97.0 | 95.8 | -4.0
Cc1ccc(-c2cc(NC(=O)c3oc4c(C)c(C)ccc4c3C)on2)cc1 | 98.0 | · | · | -25.0
O=C(CCCn1c(=O)c2ccc(Cl)cc2n(CC(=O)c2cccc(Br)c2)c1=O)NCc1ccco1 | 107.1 | 109.2 | 94.2 | -7.8
O=C(CCSCc1ccccc1)NCc1ccco1 | 98.4 | 104.0 | 79.8 | -1.5
O=C(Cn1c(=O)n(-c2ccccc2)c(=O)c2c3c(sc21)CCC3)NCc1ccco1 | 110.5 | 94.8 | 104.0 | 2.5
O=C1c2nc3cc(-c4ccccc4)[nH]n3c(=O)c2CN1Cc1ccco1 | 106.2 | 97.2 | 98.5 | -13.6
O=c1[nH]nc(-c2ccco2)o1 | · | 97.0 | 92.6 | -12.2
CC(NC(=O)c1ccc(CS(=O)(=O)Cc2ccccc2F)o1)c1ccccc1 (stereo unspecified) | 101.2 | 89.9 | 77.4 | 3.1

Next results
SMILES | GIV-Gai inh | Sa growth 42C | Sa growth 42C second temp | HCMV NEC inh
CCCS(=O)(=O)Nc1cccc(-c2cn3ccc(C)cc3n2)c1 | 97.6 | 102.9 | 76.0 | -7.3
CN(C)C(CNC(=O)c1cccc(C#N)c1)c1ccco1 (stereo unspecified) | · | 88.4 | 89.8 | -18.3
Cc1cc(C(=O)CSc2nnc(Cc3cccs3)n2CCc2ccccc2)c(C)n1CC1CCCO1 (stereo unspecified) | · | 78.4 | 55.9 | -31.9
COC(=O)Nc1ccc(Br)cn1 | · | 79.1 | 87.5 | -3.7
CCN(CC)C(=O)CSc1nnc(COc2ccc(Br)cc2)o1 | 100.5 | 105.0 | 65.6 | 19.4
COc1ccc(-c2c(C#N)c(SCC(=O)Nc3ccc(C)cc3)nc(C)c2C(=O)Nc2ccccc2)cc1 | 101.4 | 97.1 | 87.5 | -39.6
CC1CCCC(NS(=O)(=O)c2ccc3c(c2)OCCO3)C1C (stereo unspecified) | · | 91.0 | 92.1 | -1.7
Cc1c(C(=O)Nc2ccc(Cl)cc2)sc(N)c1C(N)=O | 104.9 | 101.4 | 69.5 | -6.9
